# PABP FP inh – PABP-poly(A) binding inhibition. inhibition, % at 35 µM. AID 2014. hit rate 1% among 290,000. PABP-poly(A) RNA binding, fluorescence polarization;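 active = 50% or more with normal probe brightness, or confirmed in later tests; inconclusive = above 50% with abnormal brightness, or retests that disagree; inactive = below 50% or failed in later tests; about a fifth of its hits are not listed in these tables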;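 note: calls also rest on retests at 20 µM and on dose response follow-up; controls were probe without protein and protein plus probe with vehicle; some compounds called inactive have numbers as strong as hits; many hits fall short of the cut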
# Env fusion inh – inhibitors of HIV Env-mediated cell fusion; HeLa-JRFL Env/CEM21 cell fusion, luciferase; AID 651610; hit rate 1.1% among 360,000; inhibition, % at 12.3 µM;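 active = mean replicate inhibition score of at least 50 and every replicate individually at or above 50; inconclusive = only one of the two criteria met; inactive = mean below 50 and not all replicates reaching 50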;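 note: 0% = plate neutral controls and 100% = maraviroc near 300 nM; one replicate is shown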
# UUG fidelity – yeast start codon fidelity modulation; hit rate 0.13% among 350,000; activity score, % at 18.7 µM; AID 602363; S. cerevisiae UUG-firefly luciferase reporter, luminescence/redox ratio;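 active = replicate mean at a twofold rise or more, about +100% in these data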;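 note: firefly luciferase made from a UUG start codon reports start codon fidelity; reporter light over untreated wells divided by growth signal over untreated wells; some hits fall short of that in this replicate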
# MT1-MMP act inh – inhibitors of human MT1-MMP activation. P50281. HT1080 RFP-PRO-GFP cells, GFP/RFP ratio fluorescence, overnight; percent of plate control window, DMSO zero. GFP/RFP ratio change, % at 20 µM. hit rate 0.061% among 360,000. AID 651647;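 active = GFP/RFP ratio change of at least 30% with cell ATP level not reduced by more than half and red fluorescence within 50% of control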; note: strong numbers were not always called active
#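 system = RFP-PRO-GFP reporter HT1080 cells | dosing = 20 µM single dose, 1% DMSO | timing = overnight cell settling, then overnight compound exposure, 37 °C, 5% CO2 | read-out basis = GFP/RFP fluorescence ratio | controls = DMSO and RFP-L50D-GFP cell wells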
# eIF4H FP inh – inhibitors of RNA binding by human eIF4H; eIF4H fluorescence polarization binding assay; inhibition, % at 35 µM; hit rate 0.94% among 290,000; AID 2012;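 active = 50% or more with normal probe brightness, or confirmed in later tests; inconclusive = above 50% with abnormal brightness, or retests that disagree; inactive = below 50% or failed in later tests; about a fifth of its hits are not listed in these tables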;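 note: calls also rest on retests at 20 µM and on dose response follow-up; 0% = protein and probe with vehicle and 100% = probe without protein; strong numbers were not always called active; many hits fall short of the cut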
# Rce1 inhib – blocks yeast Ras-converting enzyme; Q03530; calls only; yeast membranes, quenched prenylated peptide cleavage fluorescence; hit rate 0.27% among 290,000;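 active = fall in fluorescence gain of 50% or more versus controls, with final raw signal at or below 3038400; inconclusive = same 50% fall but final raw signal above 3038400; inactive = fall in fluorescence gain under 50%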;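 note: plate controls were neutral control wells for no effect and wells lacking membranes for full effect; tested at 10 µM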
# Target sequence (Q03530 whole entry, looked up): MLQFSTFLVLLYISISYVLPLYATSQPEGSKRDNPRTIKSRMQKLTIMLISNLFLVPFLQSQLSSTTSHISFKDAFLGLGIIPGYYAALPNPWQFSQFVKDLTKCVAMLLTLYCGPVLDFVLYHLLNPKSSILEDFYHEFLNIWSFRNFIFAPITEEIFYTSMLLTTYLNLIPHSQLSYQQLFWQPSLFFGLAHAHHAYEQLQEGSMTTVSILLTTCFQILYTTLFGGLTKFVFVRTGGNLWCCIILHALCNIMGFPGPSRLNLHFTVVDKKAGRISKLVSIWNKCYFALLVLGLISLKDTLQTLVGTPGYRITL
# CSC inhib – blocks cancer stem cells | cancer stem cell-like cells viability, luminescence | inhibition, % at 7.5 µM | hit rate 1.1% among 300,000 | AID 2717;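 active = mean at 75% or more and at least half the replicates too; inconclusive = mean and replicates disagree; tested in HMLE shEcad cells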;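 note: 0% = median of negative and 100% = median of positive control wells; the first replicate is given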
# eIF4H FP inh retest – second read-out of eIF4H FP inh, no call of its own (marks repeat the call); inhibition, %; compound at 20 µM; confirmation average;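 mean of two retest wells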
# PABP FP inh retest – also measured in PABP FP inh; calls as there; inhibition, %; compound at 20 µM; confirmation repeats;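 mean of two retest wells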
# MT1-MMP act inh RFP – further read-out of MT1-MMP act inh, marked with its call; RFP signal change, %; measured here: RFP expression control read;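 0 = vehicle wells; hits needed this value within 50% of zero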
# * = called active by the depositor; i = inactive; u = inconclusive; x = no result given.
SMILES,PABP FP inh,Env fusion inh,UUG fidelity,MT1-MMP act inh,MT1-MMP act inh RFP,eIF4H FP inh,Rce1 inhib,CSC inhib,others
COc1ccccc1NC(=O)CSc1nnc(Cc2cccn2C)n1-c1ccc(F)cc1,-1,-26,-4,-4,0,8,i,x,
CCN1C(=O)N[C@H](c2ccc(Br)cc2)C(C(=O)OC)=C1C,x,18,7,-3,0,x,i,-3,
CC(C)(C)c1ccc(OCc2ccc(C(=O)NCc3cccnc3)o2)cc1,-12,-28,-4,0,-11,2,i,6,
NS(=O)(=O)c1cc(C(=O)N2CCc3ccccc32)c(Cl)cc1Cl,-3,-20,-3,2,-4,-4,x,45,
O=C(O)c1ccc2c(c1)c1c3n2CCNC3CCC1 (configuration not stated),-2,1,-15,-4,-1,-4,i,-4,
COc1ccc(OC)c(-c2cc(C(=O)N/N=C/c3cc(OC)c(OC)cc3OC)c3ccccc3n2)c1,x,3,x,-2,-2,x,i,-1,
CC1=NN(c2ccc(Cl)cc2)C(=O)C1C(c1ccccc1O)c1c(C)[nH]n(-c2ccc(Cl)cc2)c1=O (configuration not stated),0,x,x,4,-30,4,i,38,
CC(=O)Nc1ccc(NC(=O)c2ccc3c(c2)CCN3S(C)(=O)=O)cc1,8,4,-35,1,1,-7,i,8,
CC(C(=O)N1CCN(Cc2ccc3c(c2)OCO3)CC1)n1cc([N+](=O)[O-])cn1 (configuration not stated),1,-7,-15,5,1,-1,i,-7,
O=C1CCCCCN1C(=O)c1ccc(C(=O)N2CCCCCC2=O)cc1,5,x,-8,5,6,3,i,-10,
CC(C)n1c(C(=O)OCC(=O)NCc2ccc3c(c2)OCO3)cc2sccc21,-3,x,-15,5,3,3,i,48,
CC(=O)Nc1cccc(/C(C)=N/NC(=O)c2cccs2)c1,5,-2,3,0,3,-2,x,3,
CCOC(=O)C1=C(C)OC(N)=C(C#N)C1c1ccc(OC)c(CSc2ccccn2)c1 (configuration not stated),23,1,x,4,5,6,i,3,
COc1ccccc1CNC(=O)c1cc(C(C)=O)c[nH]1,-10,-34,-5,4,1,-8,i,-9,
Cc1cc(Cl)cc(C)c1OCCOCCNCc1ccccc1,0,u,0,-2,-1,16,i,x,
CCc1noc(C)c1C(=O)OCC(=O)Nc1nc(-c2ccc(F)c(F)c2)cs1,x,-24,-14,-5,-20,x,x,x,
COCCCNCCCCOc1c(Cl)cc(C)cc1Br,0,-298,-21,-5,-3,-2,i,55,
Cc1ccc(-n2c(=O)c3sccc3n(CC(=O)NCc3ccco3)c2=O)cc1,6,-1,-8,8,2,2,i,-9,
O=C(Nc1ccc(N2CCOCC2)cc1)c1ccccc1SCC(=O)N1CCCC1,1,-10,x,-6,1,-6,i,-6,
COc1ccccc1OCc1nc(C#N)c(N2CCC(C(N)=O)CC2)o1,14,7,-5,-4,0,-1,i,1,
O=C(COC(=O)c1cc(S(=O)(=O)N2CCCC2)ccc1O)Nc1ccc(SC(F)F)cc1,x,5,-23,1,-5,x,x,x,
COc1cc(/C=C/C(=O)OCC(=O)NCC(=O)Nc2cccc(C)c2C)ccc1OC(F)F,x,x,1,-1,3,x,x,-4,
CCn1nnnc1-c1ccc(OC)c(S(=O)(=O)Nc2ccc(S(N)(=O)=O)cc2)c1,45,-19,-7,4,7,-7,i,-6,
O=C(N/N=C/c1ccc(N2CCOCC2)o1)c1ccccc1[N+](=O)[O-],5,x,x,0,-1,9,i,0,
Cc1ccccc1CN1C(=O)c2ccccc2Sc2ccc(C(=O)O)cc21,1,-2,-1,4,4,2,i,-5,

# Compounds listed so far that have a furan ring, fused or not, in the order listed:
SMILES,PABP FP inh,Env fusion inh,UUG fidelity,MT1-MMP act inh,MT1-MMP act inh RFP,eIF4H FP inh,Rce1 inhib,CSC inhib,others
CC(C)(C)c1ccc(OCc2ccc(C(=O)NCc3cccnc3)o2)cc1,-12,-28,-4,0,-11,2,i,6,
Cc1ccc(-n2c(=O)c3sccc3n(CC(=O)NCc3ccco3)c2=O)cc1,6,-1,-8,8,2,2,i,-9,
O=C(N/N=C/c1ccc(N2CCOCC2)o1)c1ccccc1[N+](=O)[O-],5,x,x,0,-1,9,i,0,

# Four entries from above, ordered by SMILES length, rising.
SMILES,PABP FP inh,Env fusion inh,UUG fidelity,MT1-MMP act inh,MT1-MMP act inh RFP,eIF4H FP inh,Rce1 inhib,CSC inhib,others
Cc1ccccc1CN1C(=O)c2ccccc2Sc2ccc(C(=O)O)cc21,1,-2,-1,4,4,2,i,-5,
NS(=O)(=O)c1cc(C(=O)N2CCc3ccccc32)c(Cl)cc1Cl,-3,-20,-3,2,-4,-4,x,45,
CCOC(=O)C1=C(C)OC(N)=C(C#N)C1c1ccc(OC)c(CSc2ccccn2)c1 (configuration not stated),23,1,x,4,5,6,i,3,
CCn1nnnc1-c1ccc(OC)c(S(=O)(=O)Nc2ccc(S(N)(=O)=O)cc2)c1,45,-19,-7,4,7,-7,i,-6,

# By substructure, the entries above with a COOH group.
SMILES,PABP FP inh,Env fusion inh,UUG fidelity,MT1-MMP act inh,MT1-MMP act inh RFP,eIF4H FP inh,Rce1 inhib,CSC inhib,others
O=C(O)c1ccc2c(c1)c1c3n2CCNC3CCC1 (configuration not stated),-2,1,-15,-4,-1,-4,i,-4,
Cc1ccccc1CN1C(=O)c2ccccc2Sc2ccc(C(=O)O)cc21,1,-2,-1,4,4,2,i,-5,

# More results
SMILES,PABP FP inh,Env fusion inh,UUG fidelity,MT1-MMP act inh,MT1-MMP act inh RFP,eIF4H FP inh,Rce1 inhib,CSC inhib,others
CS/C(=N\S(=O)(=O)c1cccs1)Nc1ccc(F)cc1,0,-1,x,4,4,9,i,-9,
Cc1ccc(NC(=O)c2cnn(-c3ccccc3)c2NC(=O)c2ccco2)cc1C,2,x,-1,0,1,-7,i,-10,
COc1ccccc1C(=O)NC(=O)COC(=O)c1oc2ccccc2c1C,x,-10,-13,-1,2,x,x,x,
CC(=O)c1c(C)[nH]c(C(=O)COC(=O)c2ccc(C)s2)c1C,x,-12,-7,5,-7,x,x,1,
COCCCNC(=O)CC1Oc2ccccc2NC1=O (configuration not stated),-10,33,3,0,4,-8,i,-4,
CN(/N=C/c1ccc(N(C)C)cc1)C1=NS(=O)(=O)c2ccccc21,u,-43,6,-37,17,u,i,50,
O=C(O)C1CC=CCC1C(=O)NCc1cn2ccccc2n1 (configuration not stated),2,10,-26,5,7,2,i,-12,
O=C(N/N=C/c1ccncc1)c1ccc(-n2cccc2)cc1,4,-22,-15,9,12,72,i,1,eIF4H FP inh retest=-11;PABP FP inh retest=13
CN(Cc1ccccc1)C(=O)c1cccc(NC(=O)Cc2ccc(NC(=O)C3CCN(C(=O)CCc4ccccc4)CC3)cc2)c1,x,22,-9,5,-28,x,x,x,

# 2 consecutive records out of the list so far:
SMILES,PABP FP inh,Env fusion inh,UUG fidelity,MT1-MMP act inh,MT1-MMP act inh RFP,eIF4H FP inh,Rce1 inhib,CSC inhib,others
O=C(N/N=C/c1ccncc1)c1ccc(-n2cccc2)cc1,4,-22,-15,9,12,72,i,1,eIF4H FP inh retest=-11;PABP FP inh retest=13
CN(Cc1ccccc1)C(=O)c1cccc(NC(=O)Cc2ccc(NC(=O)C3CCN(C(=O)CCc4ccccc4)CC3)cc2)c1,x,22,-9,5,-28,x,x,x,

# Source: PubChem
